Assay outcomes as filed in PubChem BioAssay.
INS promoter inh: TRM-6 insulin promoter activity inhibition; TRM-6 cells (human fetal islet line), insulin promoter-eGFP reporter, imaging; reporter expression induced with tamoxifen; inhibition, % at 2 µM; 130,000 tested, 0.9% active;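 active = inhibition above the mean plus 3 SD, with well images judged a real hit on visual review, cut at about 60% in these data, passing the limit was not always enough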
RGS16-Gao: RGS16-Galphao interaction regulator (human). O15492+P09471. bead-based flow cytometry RGS16-Galphao binding, fluorescence; actives lie on both sides. binding response (% of control), % at 10 µM. 220,000 tested, 0.38% active. AID 1441;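 active = below 25% or above 175%, edge rows of some plates excepted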;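 also: Galphao activated by GDP with aluminum fluoride before binding; 100% = wells without compound and 0% = beads without RGS; some results beyond the cut were filed as inactive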
Target sequence (O15492 whole entry, looked up): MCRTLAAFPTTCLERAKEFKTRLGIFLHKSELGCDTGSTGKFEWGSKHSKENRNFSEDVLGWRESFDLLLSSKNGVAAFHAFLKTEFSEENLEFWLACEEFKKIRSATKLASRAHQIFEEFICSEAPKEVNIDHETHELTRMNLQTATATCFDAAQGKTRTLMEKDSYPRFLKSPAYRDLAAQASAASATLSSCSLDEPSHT
Target sequence (P09471 whole entry, looked up): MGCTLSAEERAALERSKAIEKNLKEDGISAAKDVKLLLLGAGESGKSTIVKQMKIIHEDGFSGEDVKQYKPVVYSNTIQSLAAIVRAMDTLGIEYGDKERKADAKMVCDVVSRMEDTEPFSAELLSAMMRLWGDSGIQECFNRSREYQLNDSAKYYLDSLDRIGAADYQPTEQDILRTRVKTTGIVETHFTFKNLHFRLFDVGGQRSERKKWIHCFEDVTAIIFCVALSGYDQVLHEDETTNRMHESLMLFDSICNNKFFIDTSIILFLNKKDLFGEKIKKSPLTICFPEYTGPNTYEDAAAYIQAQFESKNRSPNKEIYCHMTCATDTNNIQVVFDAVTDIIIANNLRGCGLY
GALR2 agonist: GALR2 (human) receptor agonism | O43603 | GALR2-expressing cells, agonist activation read-out | activation, %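 (tested at 5 µM)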 | 140,000 tested, 0.48% active | AID 803;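 active = above mean plus 3 SD of all compounds, about 5% in these data, not always enough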;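 also: 0% = vehicle buffer wells and 100% = reference agonist at full effect; tested in CHO reporter cells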
Target sequence (O43603 whole entry, looked up): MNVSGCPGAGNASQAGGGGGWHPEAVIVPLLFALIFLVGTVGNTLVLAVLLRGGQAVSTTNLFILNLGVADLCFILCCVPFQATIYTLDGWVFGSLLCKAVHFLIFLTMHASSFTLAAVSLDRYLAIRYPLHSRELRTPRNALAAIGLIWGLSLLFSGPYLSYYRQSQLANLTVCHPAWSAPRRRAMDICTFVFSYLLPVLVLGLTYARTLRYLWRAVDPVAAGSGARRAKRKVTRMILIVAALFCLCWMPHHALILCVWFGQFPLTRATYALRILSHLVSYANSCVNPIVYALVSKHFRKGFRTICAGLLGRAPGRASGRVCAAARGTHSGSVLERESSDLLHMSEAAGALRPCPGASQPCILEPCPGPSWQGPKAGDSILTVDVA
HSV augment: HSV replication enhancement | 220,000 tested, 0.005% active | maximum fold increase | AID 1956 | HSV replication augmentation in cells, fold increase;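 active = peak rise of 1.5-fold or more in the series; tested in PC3 cells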;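 also: first round at 10 µM; read as green reporter fluorescence; hits show the peak of a series up to 25 µM; 1 = signal of infected wells without compound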
PKD1 kinase inh: PKD1 (human) kinase inhibition | PKD1 kinase fluorescence polarization assay | inhibition, %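 (about 10 µM by stock and volumes)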 | 200,000 tested, 0.056% active | AID 797;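 active = inhibition of 50% or more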;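 also: controls were vehicle for no effect and a reference inhibitor for full effect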
INS promoter inh cell count: second read-out of INS promoter inh, no call of its own (marks repeat the call); normalized cell count, %; measured here: cell count, toxicity; reference of the scale not given here;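 cells exposed to compound for 48 h; stained nuclei by imaging scaled within each plate; lower means fewer cells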
HSV augment primary fold: recorded beside HSV augment, whose call it bears; fold increase; compound at 10 µM; measured here: primary screen fold increase 10 uM; tested in PC3 cells;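 GFP signal in the first replicate; 1 = infected wells without compound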
The depositor's hits bear a star.

How did CC(C)(C)OC(=O)NCCc1nnc(SCc2c(Cl)cccc2Cl)o1 do in these assays?
INS promoter inh: -32.4; RGS16-Gao: 93.9; GALR2 agonist: -1.4; HSV augment: inactive; PKD1 kinase inh: -3.8; INS promoter inh cell count: 87.4; HSV augment primary fold: 0.84

Results for CCc1nnc(NC(=O)CSc2nnc(CCc3nc4ccccc4[nH]3)n2C)s1 ?
INS promoter inh: 28.6; RGS16-Gao: 103.1; GALR2 agonist: -1.5; HSV augment: inactive; PKD1 kinase inh: 8.9; INS promoter inh cell count: 91.2; HSV augment primary fold: 0.89

How did CCOC(=O)c1ccc(NC(=O)COc2ccc(CNC3CCCCC3)cc2OC)cc1 do in these assays?
RGS16-Gao: 98.5; HSV augment: inactive; PKD1 kinase inh: 0.8; HSV augment primary fold: 0.82

How did Cc1cc(NC(=O)CCCn2nc([N+](=O)[O-])cc2C)no1 do in these assays?
RGS16-Gao: 100.5; HSV augment: inactive; PKD1 kinase inh: 3.9; HSV augment primary fold: 1.01

How did COc1cc2c(cc1OC)C(NC(=O)C(F)(F)F)CNC2=O (configuration not stated) do in these assays?
RGS16-Gao: 101.2; HSV augment: inactive; PKD1 kinase inh: -2.2; HSV augment primary fold: 1

Results for COc1ccc(C)cc1NC(=O)CCC(=O)Nc1ccc2nc(N3CCN(C)CC3)cc(C)c2c1 ?
INS promoter inh: -22.2; RGS16-Gao: 93.6; GALR2 agonist: -1.6; PKD1 kinase inh: -6.7; INS promoter inh cell count: 98.7

What do the screens show for `CCC(CC)NC(=O)Nc1ccc(F)cc1F`?
RGS16-Gao: 104.8; HSV augment: inactive; PKD1 kinase inh: -2.7; HSV augment primary fold: 1.11

What do the screens show for `COc1ccc(C(C#N)c2ccc(=O)[nH]n2)cc1` (configuration not stated)?
INS promoter inh: -41.2; RGS16-Gao: 97.9; HSV augment: inactive; PKD1 kinase inh: -0.1; INS promoter inh cell count: 139.1; HSV augment primary fold: 0.91

Results for Cc1ccc(C(=O)Nc2ccccc2C(N)=O)o1 ?
INS promoter inh: 46.1; RGS16-Gao: 93.4; GALR2 agonist: -1.3; HSV augment: inactive; PKD1 kinase inh: 7.2; INS promoter inh cell count: 107.0; HSV augment primary fold: 0.83

What do the screens show for `FC(F)(F)c1cccc(NCc2cn3cccnc3n2)c1`?
RGS16-Gao: 105.1; GALR2 agonist: -1.3; PKD1 kinase inh: -6.8

What do the screens show for `COc1ccc(NC(=O)CSc2nnc(-c3ccccc3)n2Cc2ccco2)cc1OC`?
INS promoter inh: 35.3; RGS16-Gao: 97.4; GALR2 agonist: -1.8; HSV augment: inactive; PKD1 kinase inh: -7.2; INS promoter inh cell count: 124.7; HSV augment primary fold: 0.91

How did COc1ccccc1-n1c(=O)c(C#N)c(-c2ccc([N+](=O)[O-])cc2)c2cc(C(=O)c3cc(F)ccc3O)cnc21 do in these assays?
RGS16-Gao: 102.4; HSV augment: inactive; PKD1 kinase inh: 5.5; HSV augment primary fold: 0.89

How did CCOC(=O)CSCC(=O)Nc1cc(C)ccc1C do in these assays?
INS promoter inh: 2.7; RGS16-Gao: 96.0; GALR2 agonist: 0.3; HSV augment: inactive; PKD1 kinase inh: 3.0; INS promoter inh cell count: 164.6; HSV augment primary fold: 0.78

Results for O=S(=O)(c1ccc(F)c(F)c1F)N1CCN(C(=S)NCc2ccccc2)CC1 ?
RGS16-Gao: 100.0; HSV augment: inactive; PKD1 kinase inh: 0.6; HSV augment primary fold: 0.84

How did CCCCc1n[nH]c(=S)n1Cc1ccc(Cl)cc1 do in these assays?
INS promoter inh: -27.3; RGS16-Gao: 105.8; HSV augment: inactive; PKD1 kinase inh: -8.7; INS promoter inh cell count: 37.4; HSV augment primary fold: 1.02

3 compounds picked at random from the list so far, as already listed:
How did Cc1cc(NC(=O)CCCn2nc([N+](=O)[O-])cc2C)no1 do in these assays?
RGS16-Gao: 100.5; HSV augment: inactive; PKD1 kinase inh: 3.9; HSV augment primary fold: 1.01

How did COc1ccccc1-n1c(=O)c(C#N)c(-c2ccc([N+](=O)[O-])cc2)c2cc(C(=O)c3cc(F)ccc3O)cnc21 do in these assays?
RGS16-Gao: 102.4; HSV augment: inactive; PKD1 kinase inh: 5.5; HSV augment primary fold: 0.89

What do the screens show for `COc1ccc(NC(=O)CSc2nnc(-c3ccccc3)n2Cc2ccco2)cc1OC`?
INS promoter inh: 35.3; RGS16-Gao: 97.4; GALR2 agonist: -1.8; HSV augment: inactive; PKD1 kinase inh: -7.2; INS promoter inh cell count: 124.7; HSV augment primary fold: 0.91

Next compounds
What do the screens show for `COCCNC(=S)Nc1ccc2nsnc2c1`?
INS promoter inh: -17.6; RGS16-Gao: 110.0; GALR2 agonist: -1.1; HSV augment: inactive; PKD1 kinase inh: -3.7; INS promoter inh cell count: 89.8; HSV augment primary fold: 0.93

How did COc1ccccc1COC(=O)Nc1c(C)nn(C)c1Cl do in these assays?
INS promoter inh: -113.3; RGS16-Gao: 98.0; GALR2 agonist: -2.6; HSV augment: inactive; PKD1 kinase inh: -4.7; INS promoter inh cell count: 112.2; HSV augment primary fold: 0.92

Results for COc1ccc(NC(=O)c2cncc(Br)c2)cc1S(=O)(=O)N1CCCCC1 ?
INS promoter inh: -17.9; RGS16-Gao: 99.8; GALR2 agonist: -1.6; HSV augment: inactive; PKD1 kinase inh: -8.2; INS promoter inh cell count: 93.0; HSV augment primary fold: 0.96

How did CN(C)c1ccc(CNCCC(Cc2ccccc2)c2ccco2)cc1 (configuration not stated) do in these assays?
RGS16-Gao: 97.1; HSV augment: inactive; HSV augment primary fold: 0.8

What do the screens show for `CCCOc1cccc(C2/C(=C(/O)c3ccccc3)C(=O)C(=O)N2CCN(C)C)c1` (configuration not stated)?
INS promoter inh: 28.6; RGS16-Gao: 104.0; GALR2 agonist: -0.8; PKD1 kinase inh: -6.9; INS promoter inh cell count: 72.1

How did O=C(CN1CCCN(Cc2ccc(F)cc2Cl)C1=O)NC1CCCCCCC1 do in these assays?
INS promoter inh: -53.9; RGS16-Gao: 53.1; GALR2 agonist: -0.2; HSV augment: inactive; PKD1 kinase inh: -7.8; INS promoter inh cell count: 154.3; HSV augment primary fold: 1

What do the screens show for `O=C(COc1ccc(Cl)cc1)NCc1nnc(SCC(=O)Nc2ccccc2F)o1`?
INS promoter inh: -20.0; RGS16-Gao: 100.5; HSV augment: inactive; PKD1 kinase inh: -7.3; INS promoter inh cell count: 130.5; HSV augment primary fold: 0.86

How did O=C(Nc1ccc(Cl)cc1)[C@@H]1[C@@H]2C(=O)N(c3ccc4ccccc4c3)C(=O)[C@@H]2[C@H]2C=CC=NN21 do in these assays?
INS promoter inh: 10.3; RGS16-Gao: 101.3; GALR2 agonist: -0.5; HSV augment: inactive; PKD1 kinase inh: -1.2; INS promoter inh cell count: 211.6; HSV augment primary fold: 1.07

How did C=CCSc1nnc(-c2c[nH]c3ccccc23)n1CCOC do in these assays?
RGS16-Gao: 100.3; GALR2 agonist: -1.1; HSV augment: inactive; PKD1 kinase inh: 1.3; HSV augment primary fold: 1.37

How did CC1CC(=O)Nc2ccccc2N1S(=O)(=O)c1cccc(Cl)c1 (configuration not stated) do in these assays?
INS promoter inh: 51.6; RGS16-Gao: 94.0; GALR2 agonist: -1.3; HSV augment: inactive; PKD1 kinase inh: -0.6; INS promoter inh cell count: 100.5; HSV augment primary fold: 0.94

How did CC1C(c2ccccc2)N(C)C(c2ccccc2)C(C)C1(O)C#Cc1ccccc1 (configuration not stated) do in these assays?
INS promoter inh: 10.3; RGS16-Gao: 100.4; GALR2 agonist: 0.5; HSV augment: inactive; PKD1 kinase inh: -1.2; INS promoter inh cell count: 110.4; HSV augment primary fold: 1.16

What do the screens show for `CC(=O)Nc1nnc(S(N)(=O)=O)s1`?
INS promoter inh: -4.8; RGS16-Gao: 103.6; GALR2 agonist: -0.7; HSV augment: inactive; PKD1 kinase inh: -1.7; INS promoter inh cell count: 134.1; HSV augment primary fold: 0.95

What do the screens show for `CCC(C)N1C(=O)c2ccccc2C1C(=O)NC1CCCCCC1` (configuration not stated)?
INS promoter inh: -81.8; RGS16-Gao: 103.8; GALR2 agonist: 1.4; HSV augment: inactive; PKD1 kinase inh: -1.7; INS promoter inh cell count: 139.3; HSV augment primary fold: 1.04

How did Cc1cnc(C(=O)Nc2ccccc2-c2nnn(CC(=O)NC3CCCC3)n2)cn1 do in these assays?
INS promoter inh: 23.1; RGS16-Gao: 103.5; GALR2 agonist: -1.0; HSV augment: inactive; PKD1 kinase inh: -5.7; INS promoter inh cell count: 73.3; HSV augment primary fold: 0.963

Results for O=C(CSc1nn(-c2ccc(F)cc2)c(=S)s1)NCC1CCCO1 (configuration not stated) ?
RGS16-Gao: 102.5; HSV augment: inactive; PKD1 kinase inh: 3.4; HSV augment primary fold: 0.98

What do the screens show for `COc1c(Br)cc2c(C)c(C(=O)N3CCOCC3)oc2c1Br`?
INS promoter inh: -45.5; RGS16-Gao: 80.8; GALR2 agonist: -1.1; HSV augment: inactive; PKD1 kinase inh: 8.2; INS promoter inh cell count: 94.9; HSV augment primary fold: 0.67

What do the screens show for `Cc1ccc2[nH]c3c(=O)n(Cc4ccco4)cnc3c2c1`?
RGS16-Gao: 100.8; HSV augment: inactive; HSV augment primary fold: 0.86

What do the screens show for `CN(C)S(=O)(=O)c1ccc2oc(SCC(N)=O)nc2c1`?
INS promoter inh: 0.0; RGS16-Gao: 106.2; GALR2 agonist: 0.0; HSV augment: inactive; PKD1 kinase inh: -2.6; INS promoter inh cell count: 86.1; HSV augment primary fold: 0.87

Results for O=C(NN=C1CCCC1)c1ccc([N+](=O)[O-])cc1 ?
INS promoter inh: -51.4; RGS16-Gao: 99.4; HSV augment: inactive; PKD1 kinase inh: -3.6; INS promoter inh cell count: 55.8; HSV augment primary fold: 1

Results for CC(NC(=O)CN1CCc2ccccc21)c1ccccc1 (configuration not stated) ?
INS promoter inh: 2.9; RGS16-Gao: 103.2; GALR2 agonist: -0.4; HSV augment: inactive; PKD1 kinase inh: -13.2; INS promoter inh cell count: 135.8; HSV augment primary fold: 1

What do the screens show for `Nc1cc([N+](=O)[O-])ccc1O`?
RGS16-Gao: 78.2; GALR2 agonist: -1.1; HSV augment: inactive; PKD1 kinase inh: -4.1; HSV augment primary fold: 0.86

How did O=[N+]([O-])c1ccc(/C=N/Nc2ncc(-c3ccccc3)cn2)cc1 do in these assays?
RGS16-Gao: 100.7; HSV augment: inactive; PKD1 kinase inh: -5.7; HSV augment primary fold: 0.98

How did C=CCn1c(COc2ccccc2F)nnc1SCC(=O)Nc1cc(C)on1 do in these assays?
INS promoter inh: -47.1; RGS16-Gao: 98.0; HSV augment: inactive; PKD1 kinase inh: -11.1; INS promoter inh cell count: 115.2; HSV augment primary fold: 1.11

What do the screens show for `COc1ccccc1NC(=O)C1=C(C)Nc2nnnn2C1c1ccncc1` (configuration not stated)?
INS promoter inh: 7.7; RGS16-Gao: 86.1; GALR2 agonist: 0.1; HSV augment: inactive; PKD1 kinase inh: -4.9; INS promoter inh cell count: 141.0; HSV augment primary fold: 1.04

Results for COC(=O)C(C)N(c1ccc(C)cc1)S(=O)(=O)c1c(C)[nH]c(=O)[nH]c1=O (configuration not stated) ?
INS promoter inh: 25.8; RGS16-Gao: 97.5; GALR2 agonist: -1.0; HSV augment: inactive; PKD1 kinase inh: -2.0; INS promoter inh cell count: 133.6; HSV augment primary fold: 0.69

What do the screens show for `Cc1ccccc1NC(=S)N(C)Cc1cn(C)c2ccccc12`?
INS promoter inh: 13.8; RGS16-Gao: 105.6; GALR2 agonist: -0.7; HSV augment: inactive; PKD1 kinase inh: -3.6; INS promoter inh cell count: 103.3; HSV augment primary fold: 0.89

Results for CC(=O)C1=C(C)N(Cc2ccccc2)C(=O)N[C@H]1c1ccco1 ?
RGS16-Gao: 97.0; HSV augment: inactive; HSV augment primary fold: 0.96

Results for Cn1cc(-c2ccc(Cl)cc2)cc(C#N)c1=O ?
INS promoter inh: -26.7; RGS16-Gao: 100.1; HSV augment: inactive; PKD1 kinase inh: -10.6; INS promoter inh cell count: 138.6; HSV augment primary fold: 0.96

What do the screens show for `COc1ccc(-n2c(=O)c3c4c(sc3n(CC(N)=O)c2=O)CCCCC4)cc1`?
RGS16-Gao: 99.6; HSV augment: inactive; HSV augment primary fold: 1

How did Cc1ccc(CNC(=O)c2cc3c(=O)n4ccccc4nc3n(CC3CCCO3)c2=N)cc1 (configuration not stated) do in these assays?
INS promoter inh: -31.2; RGS16-Gao: 100.8; GALR2 agonist: 8.3*; HSV augment: inactive; PKD1 kinase inh: -1.7; INS promoter inh cell count: 130.4; HSV augment primary fold: 0.79
